RE007 growth inh: qHTS Assay for Inhibitors of the HIV-1 protein Vpr; AID 651644, 2012; S. pombe RE007 Vpr strain, BacTiter-Glo ATP luminescence, 24 h; control for the full effect not named in the record; 360,000 tested, 0.21% active; Potency, µM (titrated, usually from 92.2 µM), for the others: at the top dose activity change, negative = less growth; active = well fitted falling curve with a large enough effect; inconclusive = small, poorly fitted or top-dose-only effect; inactive = no such curve, though single readings can be large or run the other way;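 also: nearly all actives have a fitted effect of over 50% in size; the assay follows cell death caused by Vpr and the record does not say whether a fall means rescue or toxicity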
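Fission yeast strain RE007, carrying one chromosomally integrated HIV-1 vpr copy, was seeded at OD 0.01 in PMG+AL medium with 23 nL pinned compound. After 24 h at 30 °C and 99% humidity, viability was read by BacTiter-Glo luminescence.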
StopGo reporter: High Throughput Screening for Foot and Mouth Disease Virus Antivirals; 410,000 tested, 1.2% active; human cells with a luciferase reporter of 2A StopGo recoding; control for the full effect not named in the record; AID 1159524, 2015; Potency, µM (series often up to 57.9 µM), for inactives: at the top dose signal change, negative = less light; active = well fitted falling curve with a large enough effect; inconclusive = small, poorly fitted or top-dose-only effect; inactive = no such curve, though single readings can be large or run the other way; tested in HEK293T cells; also: nearly all actives have a fitted effect of over 45% in size; luciferase light after 4 h
Starred values were filed as active, the others as inactive; ? = inconclusive; . = no result given; [ ] = remark or other dose. % is scaled to controls: 0 for no effect and ±100 for the full control effect; potency is read from the fitted curve at half-maximal effect.

SMILES	RE007 growth inh	StopGo reporter
c1ccc(C2=NOC(c3nnc(-c4ccccc4)o3)C2)cc1 (stereo not drawn)	8.8%	33.2%
CC(C)NC(=O)C1(C)CCN1CCC(=O)c1ccccc1 (stereo not drawn)	-15.8%[18.4 µM]	-15.1%
c1ccc2c(c1)Cc1ccccc1O2	18.1%	-2.0%
Cc1ccc(-c2nc3cc(C)c(Br)c(C)n3c2CC2CCCCC2)cc1	-1.8%	6.6%
N#Cc1cnc(=S)n(-c2cc(C(F)(F)F)cc(C(F)(F)F)c2)c1N	4.8%	23.3%
CCOC(=O)c1noc2c1CCC2	0.6%	-2.4%
O=C(NNC(=O)C1CCC1)c1ccc(F)cc1	-4.3%	-3.6%
CCC/C=C/c1ccc(CN2C(C)C(=O)N(Cc3cn(CCC4OCCCO4)nn3)CCS2(=O)=O)cc1 (stereo not drawn)	0.0%	-21.5%
CCN1C(=O)C(=CC=CN(C)c2ccccc2)SC1=S	1.2%	1.6%
CCOC(=O)C1=CCC(c2ccc(C)cc2)N(S(=O)(=O)c2ccc(C)cc2)C1 (stereo not drawn)	22.7%	33.4%[activator]

A different layout for part of the listing above:
> N#Cc1cnc(=S)n(-c2cc(C(F)(F)F)cc(C(F)(F)F)c2)c1N
  RE007 growth inh: 4.8%
  StopGo reporter: 23.3%

> CCOC(=O)c1noc2c1CCC2
  RE007 growth inh: 0.6%
  StopGo reporter: -2.4%

> O=C(NNC(=O)C1CCC1)c1ccc(F)cc1
  RE007 growth inh: -4.3%
  StopGo reporter: -3.6%

> CCC/C=C/c1ccc(CN2C(C)C(=O)N(Cc3cn(CCC4OCCCO4)nn3)CCS2(=O)=O)cc1 (stereo not drawn)
  RE007 growth inh: 0.0%
  StopGo reporter: -21.5%

Further records:
SMILES	RE007 growth inh	StopGo reporter
COc1ccc(C)cc1NC(=O)COC(=O)c1c(-c2ccccc2)noc1C	18.0%	?
COc1cc(OC)cc(C(=O)NNC(=O)C(CCC(N)=O)NS(=O)(=O)c2ccc(Cl)cc2)c1 (stereo not drawn)	-0.6%	-11.4%
CCOC(=O)[C@]12CCC=C1N(Cc1cccc3ccccc13)C(=O)[C@H](CC(=O)N1CCOCC1)C2	10.1%	-12.7%
CC(C)(C(=O)N1CCC1(C)C(=O)NS(=O)(=O)c1ccc(C#N)cc1)c1ccccc1 (stereo not drawn)	54.0%[18.4 µM]	3.6%
CC(=O)Nc1cccc(-c2ccnc3c2CC(C(=O)NCc2ccco2)O3)c1 (stereo not drawn)	10.4%	-12.3%
O=C(Nc1ccc(F)cc1)Nc1cccc(Br)c1	15.9%	25.6%
CC1(C(=O)Nc2cccc3ncccc23)CCN1C(=O)CCc1ccccc1 (stereo not drawn)	9.3%	-21.7%
COCCN1C(=O)COc2ccccc2C1C(=O)NC1CCCC1 (stereo not drawn)	19.1%	-3.2%
CC(=O)Nc1cccc(-c2ccnc3c2CC(C)(C(=O)Nc2ccccc2)O3)c1 (stereo not drawn)	7.9%	-8.2%
CCC(=O)N1CCC(C)(C(=O)Nc2ccc(OC)c(OC)c2)C1 (stereo not drawn)	8.4%[18.4 µM]	-4.9%
CC(C)NC(=O)C1(C)CN(S(C)(=O)=O)CC(=O)N1Cc1cccc(F)c1 (stereo not drawn)	5.1%	-10.3%
O=C(NCC1CCCN1S(=O)(=O)c1cccs1)C(=O)Nc1ccccc1F (stereo not drawn)	-5.4%	26.0%
COC(=O)C1=C(C(=O)OC)[C@@H]2Nc3ccccc3[C@@]23C[C@@H](C(=O)OC)N(C(=O)c2cc(C)oc2C)C3=N1	4.3%	-20.8%
CC(C)(C)OC(=O)N(CCc1ccccc1)Cc1ccc(OCc2cccc(NC(=O)C3CC3)c2)cc1	6.7%	22.4µM*
COCCNC(=O)C1CCCN(Cc2ccc(C(C)C)cc2)CC1 (stereo not drawn)	-4.5%	-21.4%
C[C@@H]1CN([C@@H](C)CO)C(=O)c2cc(Br)cnc2O[C@@H]1CN(C)Cc1ccc(Oc2ccccc2)cc1	15.3%	-12.7%
Cc1ccccc1Oc1ccc2c(c1)[C@@H]1C[C@H](N(C)C(=O)c3ccc(C#N)cc3)[C@H]([C@H](C)O)C(=O)N1CC2	5.0%	-19.3%
O=C(NC1CC1)C1=C[C@H](c2coc3ccccc3c2=O)C[C@H](OCc2ccc(CO)cc2)O1	110.6%	-22.2%
CC(=O)N1C[C@H]2CON(C)[C@H]2C[C@H]1c1cccc(N2CCOCC2)c1	6.2%	-4.1%
COc1ccc(S(=O)(=O)N2CCCC2CNC(=O)C(=O)NC2CCCC2)cc1 (stereo not drawn)	-2.3%	-11.8%
CSC1=NN(c2ccccc2)CN(c2ccccc2)N1C	-13.0%	-0.4%
CC(C)(C)c1ccc(C(=O)O/N=C(\N)Cc2cccs2)cc1	?	-7.8%
CC1CN(C(=O)CSc2nc(N)c(NC(=O)c3ccc(C(F)(F)F)cc3)c(=O)[nH]2)CC(C)O1 (stereo not drawn)	1.5%	-8.6%
O=C(Nc1ccc(F)c(Cl)c1)c1cc(C2CCCCN2C(=O)c2ccc3c(c2)CCO3)on1 (stereo not drawn)	-3.3%	-23.6%
CC(C)C[C@@H](CN1CCC[C@H]1CN1C(=O)C(=O)NC[C@@H]1Cc1ccccc1)N1C[C@H](Cc2ccccc2)N(CC2CCCCCC2)C(=O)C1=O	1.7%	-5.7%
C[C@@H]1CN([C@H](C)CO)C(=O)CCCn2nncc2CO[C@H]1CN(C)S(=O)(=O)c1cccc(C#N)c1	21.2%	-5.5%
CCCS(=O)(=O)NC(=O)C1(C)CCN(C(=O)c2ccnc(Cl)c2)C1 (stereo not drawn)	7.0%	-1.4%
COc1cccc(S(=O)(=O)N(C)C[C@@H]2OCc3cnnn3CCCC(=O)N([C@H](C)CO)C[C@H]2C)c1	6.7%	-1.6%
CCNC(=O)C1CCCN(C(=O)c2ccc3c(c2)CCO3)CC1 (stereo not drawn)	-3.7%[18.4 µM]	-11.0%
CCOC(=O)C1=CCC(c2cccn2C(=O)OC(C)(C)C)N(S(=O)(=O)c2ccc(C)cc2)C1 (stereo not drawn)	7.2%	-4.3%

Compound profiles (already shown).
CC(=O)Nc1cccc(-c2ccnc3c2CC(C(=O)NCc2ccco2)O3)c1 (stereo not drawn) is entered as RE007 growth inh = 10.4%; StopGo reporter = -12.3%
CCN1C(=O)C(=CC=CN(C)c2ccccc2)SC1=S is entered as RE007 growth inh = 1.2%; StopGo reporter = 1.6%

(next part)
SMILES	RE007 growth inh	StopGo reporter
O=C(O)C1=C[C@@H](C2CC2)C[C@@H](OCCCCO)O1	9.1%	-0.4%
CCN(CC)C(=O)C1=C(C)N(Cc2ccccc2)C(=O)C(CC(=O)NC(c2ccccc2)c2ccccc2)C1 (stereo not drawn)	9.9%	-23.6%
COc1cc2[nH]c(C)c(-c3ccccc3)c(=O)c2cc1Cl	17.7%	-7.5%
Cn1c(=O)c2cccnc2c(=O)n1C	7.1%	-15.0%
CC1=C(C(=O)N(C)C)CC(CC(=O)NCCN2CCOCC2)C(=O)N1CCC1=CCCCC1 (stereo not drawn)	-3.9%	-11.3%
OC(c1ccccc1)C(NCc1ccccc1)c1ccccc1 (stereo not drawn)	-0.6%	.
CCNC(=O)N(C)c1c(CC)nc2ccc(C(=O)N3CCN(S(=O)(=O)CC)CC3)cn12	6.4%	19.6%
N#CC(c1ccccc1)c1ccc([N+](=O)[O-])cc1 (stereo not drawn)	-15.6%[18.4 µM]	-21.7%
CC1(c2nnc(-c3ccncc3)o2)CC(c2cccnc2)=NO1 (stereo not drawn)	-0.1%	1.1%
CN1CCN(C2Cc3cc(F)ccc3Sc3ccc(Cl)cc32)CC1 (stereo not drawn)	-13.5%	?
Cc1ccc(S(=O)(=O)N2CCCCC2)cc1NC(=O)CN1CCCC1c1cccs1 (stereo not drawn)	-3.5%	-20.6%
COc1cccc(Cn2c3ccc(NC(=O)CC(C)C(F)(F)F)cc3c(=O)n2C)c1 (stereo not drawn)	5.7%[18.4 µM]	1.1%
C=CCOC(=O)N1Cc2ccccc2-n2nncc2C1	0.8%	-3.6%
COc1ccc(CNC(=O)C2(C)Cc3c(-c4ccccc4)ccnc3O2)cc1OC (stereo not drawn)	13.2%	-37.9%
O=C(Nc1ccn(C2CCC(CO)O2)c(=O)n1)c1ccccc1 (stereo not drawn)	5.6%[18.4 µM]	-2.2%
CC(=O)Nc1cc(-c2cccc(C(=O)N(C)C)c2)cn2c(-c3ccc(F)cc3)cnc12	-11.2%	-17.2%
CCc1sc(C(=O)N(CCOC)c2c(N)n(Cc3ccccc3)c(=O)[nH]c2=O)cc1C	-1.2%	-6.0%
Clc1ccc(C(c2cccs2)N2CCNCC2)cc1 (stereo not drawn)	-0.2%	?
C[C@H]1CCCCO[C@H](CN(C)Cc2ccccc2)[C@@H](C)CN([C@@H](C)CO)C(=O)c2cc(NC(=O)CCC(F)(F)F)ccc2O1	5.0%	-20.3%
COC(=O)C(C(=O)OC)C1C=CCN(C(C)=O)C1 (stereo not drawn)	-3.3%	-24.3%

Copied from above, 5 compounds:
SMILES	RE007 growth inh	StopGo reporter
CC(=O)Nc1cc(-c2cccc(C(=O)N(C)C)c2)cn2c(-c3ccc(F)cc3)cnc12	-11.2%	-17.2%
CCc1sc(C(=O)N(CCOC)c2c(N)n(Cc3ccccc3)c(=O)[nH]c2=O)cc1C	-1.2%	-6.0%
Clc1ccc(C(c2cccs2)N2CCNCC2)cc1 (stereo not drawn)	-0.2%	?
C[C@H]1CCCCO[C@H](CN(C)Cc2ccccc2)[C@@H](C)CN([C@@H](C)CO)C(=O)c2cc(NC(=O)CCC(F)(F)F)ccc2O1	5.0%	-20.3%
COC(=O)C(C(=O)OC)C1C=CCN(C(C)=O)C1 (stereo not drawn)	-3.3%	-24.3%

The list goes on:
SMILES	RE007 growth inh	StopGo reporter
Cc1cc(F)ccc1-c1cc(C(=O)N2CCN(c3ccncc3)CC2)[nH]n1	-7.8%[18.4 µM]	-12.1%
CN(C)C(=O)C[C@@H]1C=C[C@@H](NC(=O)C2CCC2)[C@@H](CO)O1	-3.0%	-9.2%
CC1(c2ccc3c(c2)OCCCO3)NC(=O)N(CC(=O)NCCc2ccc(F)cc2)C1=O (stereo not drawn)	3.8%	0.0%
COc1cc(C2C(c3ccccc3)C(c3cc(OC)cc(=O)o3)C2c2ccccc2)oc(=O)c1 (stereo not drawn)	-0.3%	-24.2%
O=C(CSc1ccc(F)cc1)NC(=O)c1ccccc1	15.7%	18.4%
CCNC(=O)C1CCCN(Cc2ccc(C(=O)OCC)cc2)CC1 (stereo not drawn)	0.0%	-19.8%
Fc1ccc(-c2nc3c4ccccc4ccn3c2Cc2ccccc2C(F)(F)F)cc1	-14.5%	2.4%
C#CCN1C=CC(=O)[C@@H](OC(=O)Nc2ccc(Br)cc2)[C@H]1c1ccccc1Br	-2.5%	-20.0%
CCCNC(=O)C1(C)CCCN(Cc2ccccc2N(C)C)C1 (stereo not drawn)	1.1%	-11.4%
CC(C)CC(N)c1csc(NC(=O)Nc2ccccc2Cc2ccccc2)n1 (stereo not drawn)	-11.3%	-18.5%
O=C(Nc1ccc2c(c1)OCO2)c1ccc2sc([C@H]3C[C@H](O)[C@@H](CO)O3)nc2c1	-13.8%	30.8%[activator]
O=Cc1ccc(F)c([B-](F)(F)F)c1	-7.6%	-4.7%
CCCCNC(=O)C1(C)CCN1C(=O)c1ccc(C(F)(F)F)nc1C (stereo not drawn)	-0.2%	-15.3%
C[C@H](CO)N1C[C@H](C)[C@@H](CN(C)C(=O)Nc2ccc3c(c2)OCCO3)OCc2cnnn2CCCC1=O	9.3%	25.9%
COc1ccccc1CCn1cnc(C)c1CC(C)C	?	-22.2%
O=C(Nc1ccc(F)cc1)C(c1ccnc2ccccc12)N1CCN(C(=O)c2ccco2)CC1 (stereo not drawn)	-13.5%	-7.4%
COc1ccc(Cc2noc(=O)[nH]2)cc1	-4.9%	-6.3%
Cn1[nH]c2c(c1=O)[C@H](c1ccc(F)cc1)O[C@H](CCc1ccccc1)C2	-17.1%	-4.5%
CC(=O)N(C(C)=O)c1ccc2c(c1)OCCO2	-23.8%	-11.4%
COc1cccc(NC(=S)NC(=O)c2cncc(Br)c2)c1	-9.6%	67.9%[activator]
CC1(C(=O)NC2CCCC2)CCC(=O)N1CCc1c[nH]c2ccccc12 (stereo not drawn)	4.1%	-16.3%
c1ccc(CNc2nc(NCCc3ccncc3)c3sccc3n2)cc1	-17.3%[18.4 µM]	-17.1%
CC(=O)c1ccc(-c2cnc3c(NC=O)cc(-c4ccc(S(C)(=O)=O)cc4)cn23)cc1	1.9%	-18.5%
COc1cc(OC)c(C2C=CC(=O)CC2)c(OC)c1 (stereo not drawn)	4.4%	?
CC(O)(c1ccc(F)c(F)c1)c1nc(-c2cc3ccccc3o2)cs1 (stereo not drawn)	?	-3.9%
O=C(Nc1ccc2c(c1)OCO2)c1ccc2sc([C@@H]3O[C@H](CO)[C@@H](O)[C@H]3O)nc2c1	11.8%[18.4 µM]	18.0%
CN1CCN(c2ccc(-c3cc(NC=O)c4ncc(-c5ccc(F)cc5)n4c3)cc2)CC1	-28.8%	2.1%
CC(C)Oc1ccc2ccccc2c1CNC[C@H]1O[C@@H](n2ccc(=O)[nH]c2=O)[C@H](O)[C@@H]1O	-6.4%	-9.4%
C[C@H](O)CNC(=O)c1[nH]cnc1C(=O)Nc1ccc(CNC(=O)OC(C)(C)C)cc1	-5.4%	?

High-throughput results deposited in PubChem by National Center for Advancing Translational Sciences (NCATS).

Not all compounds are listed; rates above refer to the full screens.
